Compound activity deposited in PubChem by ICCB-Longwood Screening Facility, Harvard Medical School.
PV pol inh: inhibitors of poliovirus RNA polymerase binding and polymerization; poliovirus polymerase elongation, fluorescence polarization; hits give low values; % elongation, % (compound at 16.7 µg/mL); 150,000 compounds, 0.66% hits; AID 588519; in the data active means % elongation below about 90%; further: some results filed as inactive read as strong as hits
Target sequence (P03300 1749-2209 limits assumed): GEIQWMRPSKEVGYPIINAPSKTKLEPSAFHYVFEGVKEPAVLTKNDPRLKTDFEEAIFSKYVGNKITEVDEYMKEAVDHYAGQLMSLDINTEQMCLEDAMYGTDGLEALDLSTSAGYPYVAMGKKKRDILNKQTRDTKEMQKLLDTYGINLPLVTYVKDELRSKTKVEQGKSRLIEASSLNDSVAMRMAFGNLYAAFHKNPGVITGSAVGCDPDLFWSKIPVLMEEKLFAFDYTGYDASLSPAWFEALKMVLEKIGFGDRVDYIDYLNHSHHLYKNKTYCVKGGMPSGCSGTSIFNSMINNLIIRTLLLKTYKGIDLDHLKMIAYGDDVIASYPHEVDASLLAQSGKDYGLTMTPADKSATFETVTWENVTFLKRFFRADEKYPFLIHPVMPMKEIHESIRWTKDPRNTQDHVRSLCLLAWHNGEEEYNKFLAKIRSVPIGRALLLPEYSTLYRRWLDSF
PV pol inh intensity: also measured in PV pol inh; calls as there; % elongation; measured here: total intensity read-out; formula for this scale not given here;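 total fluorescence in place of polarization; lower means less elongation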
Starred values were filed as active, the others as inactive. These rows are one share of the data; the hit share may differ from the screen's.

Results follow in this order: PV pol inh intensity, PV pol inh
- Cn1cc(S(=O)(=O)c2ccccc2)c(=O)c2cc(F)c(N3CCCCC3)cc21
 : 114, 106
- COc1cccc(NC(=O)CSc2nnc3[nH]c(=O)cc(-c4ccccc4)n23)c1
 : 99, 110
- CSc1ccc(CCNC(=O)CN2C(=O)c3cccnc3Oc3ccc(Cl)cc32)cc1
 : 109, 111
- COC(=O)c1cc(NC(=O)CN(c2ccccc2)S(=O)(=O)N(C)C)ccc1Cl
 : 111, 108
- Cc1ccccc1NC(=O)Cn1c(=O)n(CCc2ccccc2)c(=O)c2sc3ccccc3c21
 : 102, 100
- CC(=O)Nc1ccc(-c2nnc(SCC(=O)c3ccc([N+](=O)[O-])cc3)o2)cc1
 : 109, 106
- CCOC(=O)c1c(C)oc2nc(C)nc(NCc3ccc(OC)cc3OC)c12
 : 114, 107
- COc1cc(C2c3c(-c4ccc(C)cc4)n[nH]c3C(=O)N2c2ccc(F)cc2)ccc1O (configuration not stated)
 : 110, 109
- CCc1nnc(NC(=O)CSc2nccn2-c2ccc(OC)cc2)s1
 : 103, 107
- COc1ccc(-c2c(C)nn3c(N4CCN(c5ccccc5F)CC4)cc(C)nc23)cc1OC
 : 107, 103
- Cc1nn(CCCC(=O)Nc2ccccc2C(F)(F)F)c(=O)c2nn(-c3ccccc3)c(C)c12
 : 115, 109
- O=C(Nc1ccc(OC(F)(F)F)cc1)NC1COc2ccccc2C1 (configuration not stated)
 : 107, 99
- Cc1coc2c(C)c3oc(=O)c(CCC(=O)N4CCCCC4)c(C)c3cc12
 : 107, 104
- CC(=O)Nc1ccc(NC(=O)Cn2nc(C(=O)Nc3ccc(C)cc3)ccc2=O)cc1
 : 98, 109
- Cc1ccn2c(Nc3ccc4c(c3)OCCO4)c(-c3ccc(C)o3)nc2c1
 : 109, 108
- CCOc1ccc(Nc2ncnc3c2nc2n3CCCCC2)cc1
 : 101, 115
- CC(C)CCNC(=O)c1cc(-c2cccnc2)nc2ccc(S(=O)(=O)N3CCC(C)CC3)cc12
 : 112, 107
- O=C(Nc1cccc(F)c1)[C@H](CSCc1ccccc1)N1Cc2ccccc2C1=O
 : 87*, 84*
- COc1cccc(CNC(=O)Cn2c(=O)nc(-c3ccccc3F)c3cc(Cl)ccc32)c1
 : 98, 104
- COc1cccc(NC(CNS(=O)(=O)c2ccc(C)cc2)c2ccccc2)c1 (configuration not stated)
 : 110, 110

Rewritten with bars between the fields: six of the compounds above
molecule | PV pol inh intensity | PV pol inh
Cc1nn(CCCC(=O)Nc2ccccc2C(F)(F)F)c(=O)c2nn(-c3ccccc3)c(C)c12 | 115 | 109
O=C(Nc1ccc(OC(F)(F)F)cc1)NC1COc2ccccc2C1 (configuration not stated) | 107 | 99
Cc1coc2c(C)c3oc(=O)c(CCC(=O)N4CCCCC4)c(C)c3cc12 | 107 | 104
CC(=O)Nc1ccc(NC(=O)Cn2nc(C(=O)Nc3ccc(C)cc3)ccc2=O)cc1 | 98 | 109
Cc1ccn2c(Nc3ccc4c(c3)OCCO4)c(-c3ccc(C)o3)nc2c1 | 109 | 108
CCOc1ccc(Nc2ncnc3c2nc2n3CCCCC2)cc1 | 101 | 115

(further entries)
Results follow in this order: PV pol inh intensity, PV pol inh
- CCn1c(=O)cc(SCC(=O)NCc2ccc(C)cc2)c2ccccc21
 : 114, 112
- CC(C)Oc1ccc(CNC(=O)c2ccc3nc(C(C)C)oc3c2)cc1
 : 100, 112
- Cc1ccc(Cl)cc1NC(=O)CSc1nc2ccccc2nc1Cc1ccccc1
 : 108, 105
- COC(=O)c1ccc(OCC2c3cc(OC)c(OC)cc3CCN2C(=O)Cc2ccccc2)cc1 (configuration not stated)
 : 99, 102
- Cc1cccc2c1-c1sc(C(=O)NCCc3ccc(Cl)cc3)cc1CO2
 : 111, 104
- Cc1ccccc1-c1nc2cc(NC(=O)COc3ccc(F)cc3)ccc2o1
 : 106, 111
- Cc1nc2nc(C)c(CCC(=O)NCCc3ccccc3)c(C)n2n1
 : 108, 107
- Cc1ccc(-c2nc3ccccc3[nH]2)cc1NC(=O)COc1ccc(Cl)cc1Cl
 : 108, 102
- Clc1cccc(N2CCN(c3nc4ccccc4n4nnnc34)CC2)c1
 : 152, 106
- O=S(=O)(Nc1cccc(-c2ccc(N3CCCCC3)nn2)c1)c1cccc(F)c1
 : 98, 103
- O=C(CCCCCn1c(=O)c2sccc2n(CC(=O)Nc2cc(C(F)(F)F)ccc2Cl)c1=O)NCc1ccccc1Cl
 : 106, 106
- CC1CCN(C(=O)c2cc3c(=O)n(C)c4cc(Cl)ccc4c3s2)CC1
 : 105, 110
- O=C(c1ccc(C(F)(F)F)cc1)N1CCC(c2nc(-c3ccc(S(=O)(=O)N4CCCC4)cc3)no2)CC1
 : 110, 108
- CCc1ccc2ncc3c(-c4ccc(C)cc4)nn(CC(=O)Nc4ccc(C)cc4)c3c2c1
 : 110, 110
- Cc1cc(NC(=O)Nc2nnc(N3CCCCC3)s2)ccc1Br
 : 111, 111
- Cc1ccc2nc(-c3ccc(Cl)cc3)cc(C(=O)OCC(=O)c3ccccc3)c2c1
 : 109, 104
- CN1CC(=O)N(CC(=O)Nc2ccc(OC(F)(F)F)cc2)c2ccccc2C1=O
 : 116, 111
- CC(NC(=O)Cn1ccc2cc(S(=O)(=O)N3CCCCCC3)ccc21)c1ccccc1 (configuration not stated)
 : 112, 105
- COc1ccc(NC(=O)Nc2nnc(N3CCCCCC3)s2)cc1
 : 114, 109
- COc1cccc(NC(=O)Cn2nc(C)c3c(C)n(-c4ccccc4)nc3c2=O)c1
 : 96, 100
- CCn1c2ccccc2c2cc(CN3CCN(Cc4ccccc4C)CC3)ccc21
 : 108, 103
- CCOc1ccc(C(=O)c2cn(CC(=O)Nc3ccc4c(c3)OCCO4)c3ccc(OC)cc3c2=O)cc1
 : 108, 110
- CCOc1cc(C2C(C(=O)OC)=C(C)NC3=C2C(=O)c2ccccc23)c(Br)cc1OC (configuration not stated)
 : 116, 113
- COC(=O)c1cccc(-n2c(CCC(=O)O)ccc2-c2ccc(OC)cc2)c1
 : 112, 106
- CCOC(=O)c1cccc(NC(=O)N2CC(CC)Sc3ccccc32)c1 (configuration not stated)
 : 101, 105
- CCCCNC(=O)CN1C(=O)COc2ccc(S(=O)(=O)N3CCCC3)cc21
 : 109, 107
- Cc1nn(C(=O)c2ccccc2F)c(C)c1S(=O)(=O)N1CCCCCC1
 : 106, 106
- Cc1ccc(CCNC(=O)Cn2ncc3c([nH]c4ccc(C)cc43)c2=O)cc1
 : 98, 101
- CCC(=O)OCc1cnc(C)c2oc(=O)c(C(=O)Nc3ccc(CC)cc3)cc12
 : 114, 115
- CCCc1cnc2c(c1SCC(=O)Nc1cccc(C)c1C)c(=O)n(C)c(=O)n2C
 : 108, 107
- O=C(NC1CC(=O)N(c2ccccc2)C1)c1cccs1 (configuration not stated)
 : 103, 109
- CCOc1ccccc1NC(=O)Cn1nc(N2CCN(c3ccccc3)CC2)ccc1=O
 : 113, 115
- CCN(c1ccc(OC)cc1)S(=O)(=O)c1nnc(NC(=O)c2ccccc2Cl)s1
 : 98, 109
- CC1CCc2c(sc(NC(=O)c3cc(-c4cccc(Cl)c4)on3)c2C(N)=O)C1 (configuration not stated)
 : 104, 100
- Cc1ccc2nc(SC(Cc3cc(Cl)ccc3Cl)C(=O)O)[nH]c2c1 (configuration not stated)
 : 108, 105
- CC(C)(C)C1CCc2c(sc(NC(=O)c3ccc(Cl)cc3)c2C(=O)NCc2ccco2)C1 (configuration not stated)
 : 106, 107
- Cc1cc(C)c2c(CC(=O)Nc3nnc(C(C)C)s3)coc2c1
 : 119, 117
- CCOc1ccccc1NC(=O)C(C)n1nnc2sc3c(c2c1=O)CCCC3 (configuration not stated)
 : 99, 111
- COc1cc(C(=O)N(CCCN(C)C)c2nc3c(OC)cccc3s2)cc(OC)c1OC
 : 99, 101
- Cc1ccc(CNC(=O)CN2CCCN(Cc3ccc(F)cc3)S2(=O)=O)cc1
 : 107, 109
- CCS(=O)(=O)c1nc(S(=O)(=O)c2ccc(C)cc2)c(NCC(C)C)s1
 : 108, 109
- O=C(NCc1ccc(F)cc1Cl)c1cc(=O)[nH]c2ccc(S(=O)(=O)N3CCCCC3)cc12
 : 89, 100
- Cc1cc(-c2ccc(C)c(S(=O)(=O)Nc3cccc(C)n3)c2)on1
 : 103, 106
- COc1ccc(-n2cc(C(=O)N(C)c3cc(C)ccc3OC)c3ccccc3c2=O)cc1
 : 101, 103
- CCn1ccc2cc(S(=O)(=O)N3CCCN(C(=O)NCCOC)CC3)ccc21
 : 106, 112
- Cc1ccc(-n2c(/C=C/c3cccc(C(F)(F)F)c3)nc3ccccc3c2=O)cc1
 : 112, 110
- CC1Cc2cc(S(=O)(=O)NCc3ccc(F)cc3)ccc2N1C(=O)C1CCC1 (configuration not stated)
 : 94, 100
- O=C(NCc1ccc(F)cc1)c1ccc2c(Cl)c3c(nc2c1)CCCC3
 : 109, 104
- Cc1ccc(-n2nnnc2CNC(=O)c2ccccc2C)cc1C
 : 100, 102
- CC(=O)Nc1cccc(-c2nnc(SCC(=O)c3cc([N+](=O)[O-])ccc3Br)o2)c1
 : 107, 102

The listing continues:
Results follow in this order: PV pol inh intensity, PV pol inh
- CCOc1ccc(NC(=O)CN2CCN(Cc3ccccc3)S2(=O)=O)cc1
 : 106, 106
- CCc1ccc(NC(=O)C2CCC(CNS(=O)(=O)c3cccs3)CC2)cc1 (configuration not stated)
 : 106, 106
- COc1ccc(-c2cc(C(=O)Nc3cccc(C(C)=O)c3)no2)cc1OC
 : 110, 108
- Cc1ccccc1-n1nc(CO)c(C(=O)NCc2cccnc2)n1
 : 111, 110
- C=Cc1ccc(CSc2nc(-c3ccccc3Cl)nc3c2Cc2c(CO)cnc(C)c2O3)cc1
 : 114, 108
- Cc1cccc(NS(=O)(=O)c2ccc3c(c2)CCN3C(=O)C2CCC2)c1
 : 113, 115
- Fc1ccc(Nc2ncnc3onc(-c4ccc(Cl)cc4)c23)cc1Cl
 : 109, 109
- Cc1cc(SCC(=O)Nc2ccc(C(F)(F)F)cc2)nc(=O)[nH]1
 : 99, 105
- COc1ccc(-c2cc3nc(C)c(CCC(=O)Nc4cccc(C(F)(F)F)c4)c(C)n3n2)c(OC)c1
 : 111, 110
- CC1CCN(S(=O)(=O)c2ccc3c(c2)N(CC(=O)NCCCN2CCCC(C)C2)C(=O)CS3)CC1 (configuration not stated)
 : 111, 112

Taken from above.
PV pol inh, `Cc1ccccc1-n1nc(CO)c(C(=O)NCc2cccnc2)n1` reads 110
PV pol inh, `COc1ccc(-c2cc3nc(C)c(CCC(=O)Nc4cccc(C(F)(F)F)c4)c(C)n3n2)c(OC)c1` reads 110
PV pol inh, `COc1ccc(-c2cc(C(=O)Nc3cccc(C(C)=O)c3)no2)cc1OC` reads 108
PV pol inh, `C=Cc1ccc(CSc2nc(-c3ccccc3Cl)nc3c2Cc2c(CO)cnc(C)c2O3)cc1` reads 108
PV pol inh, `Fc1ccc(Nc2ncnc3onc(-c4ccc(Cl)cc4)c23)cc1Cl` reads 109
PV pol inh, `CCc1ccc(NC(=O)C2CCC(CNS(=O)(=O)c3cccs3)CC2)cc1` (configuration not stated) reads 106

Later entries:
Results follow in this order: PV pol inh intensity, PV pol inh
- CCc1ccc2occ(CC(=O)Nc3ccc(OC)c(Cl)c3)c2c1
 : 111, 109
- CC(C)Oc1ccc(-c2nc3c(C#N)c[nH]n3c2NC2CCCCC2)cc1
 : 114, 110
- Cc1ccc(-c2ccc(=O)n(CC(=O)Nc3cccc(C#N)c3)n2)cc1
 : 102, 107
- COc1ccc(CNC(=O)CCC2N=C3c4ccccc4N=C(SCc4cccc(F)c4)N3C2=O)cc1 (configuration not stated)
 : 100, 110
- Cc1ccc(N2CC(c3nnc(Cc4ccc(F)cc4)o3)CC2=O)cc1 (configuration not stated)
 : 102, 99
- CCOc1ccc(S(=O)(=O)Nc2cccc(-c3ccc(N4CCC(C)CC4)nn3)c2)cc1
 : 104, 101
- Cn1ccc2cc(S(=O)(=O)N3CCCN(C(=O)Nc4ccccc4Br)CC3)ccc21
 : 108, 102
- COc1ccc(CN(C(=O)c2cc3ccccc3oc2=O)C2CCS(=O)(=O)C2)cc1 (configuration not stated)
 : 104, 107
- COc1ccc2oc(=O)c(-c3nnc(-c4ccc(C)cc4)o3)cc2c1
 : 95, 98
- COc1ccc(CC(=O)NCc2ccc3c(c2)CCN3C(=O)c2cccc(C)c2)cc1
 : 111, 106

Grouped by structure, the compounds so far containing a nitro group on carbon (two)
Results follow in this order: PV pol inh intensity, PV pol inh
- CC(=O)Nc1ccc(-c2nnc(SCC(=O)c3ccc([N+](=O)[O-])cc3)o2)cc1
 : 109, 106
- CC(=O)Nc1cccc(-c2nnc(SCC(=O)c3cc([N+](=O)[O-])ccc3Br)o2)c1
 : 107, 102

Next entries follow.
Results follow in this order: PV pol inh intensity, PV pol inh
- COc1ccccc1CNS(=O)(=O)c1ccc2c(c1)CC(=O)N2C
 : 112, 111
- O=C(CN1CCCN(Cc2ccc(Cl)cc2)S1(=O)=O)Nc1ccccc1F
 : 107, 105
- CCc1ccc(NC(=O)C2CCN(c3nn4cc(-c5ccc(OC)cc5)nc4s3)CC2)cc1
 : 103, 108
- Cc1ccc(CCNC(=O)Cn2nc(C)c3c(C)n(-c4ccc(C)cc4)nc3c2=O)cc1
 : 112, 114
- Cc1cccc(C)c1NC(=O)CSc1nccn1C
 : 107, 103

Record cards (already shown). Values in the order: PV pol inh intensity, PV pol inh
`O=C(CN1CCCN(Cc2ccc(Cl)cc2)S1(=O)=O)Nc1ccccc1F` as listed: 107, 105
`CCc1ccc(NC(=O)C2CCN(c3nn4cc(-c5ccc(OC)cc5)nc4s3)CC2)cc1` as listed: 103, 108
`Cc1cccc(C)c1NC(=O)CSc1nccn1C` as listed: 107, 103
`Cc1ccc(CCNC(=O)Cn2nc(C)c3c(C)n(-c4ccc(C)cc4)nc3c2=O)cc1` as listed: 112, 114
